StopGo reporter: FMDV 2A StopGo reporter, luciferase signal. human cells with a luciferase reporter of 2A StopGo recoding; control for the full effect not named in the record. Potency, µM (titrated, usually from 57.9 µM), for the others: at the highest dose signal change, negative = less light. 410,000 compounds, 1.2% hits. AID 1159524; active = well fitted falling curve with a large enough effect; inconclusive = small, poorly fitted or top-dose-only effect; inactive = no such curve, though single readings can be large or run the other way; tested in HEK293T cells; note: % is set by controls: 0 for no effect and ±100 for the full control effect; nearly all actives have a fitted effect of over 45% in size; luciferase light after 4 h
Marburg entry inh: Marburg virus entry inhibition; Marburg virus pseudotyped entry inhibition, cell reporter; control for the full effect not named in the record; about a third of the inactives were read at about 46 µM; 300,000 compounds, 1.8% hits; Potency, µM (top dose mostly 37.8 µM), for the others: at the top dose activity change, negative = inhibition, actives largely listed as inhibitors; AID 540276; active = well fitted inhibition curve with a large enough effect; inconclusive = small, poorly fitted or top-dose-only effect, or effect the other way; inactive = flat fitted curve, though single readings scatter; tested in HEK293 cells; about a fifth of its hits are not listed in these tables; note: % is set by controls: 0 for no effect and ±100 for the full control effect; luciferase read-out
RE007 growth inh: less growth of the S. pombe RE007 Vpr strain. Potency, µM (series often up to 92.2 µM), for the others: top-dose activity change, negative = less growth. S. pombe RE007 Vpr strain, BacTiter-Glo ATP luminescence, 24 h; control for the full effect not named in the record. 360,000 compounds, 0.21% hits; active = well fitted falling curve with a large enough effect; inconclusive = small, poorly fitted or top-dose-only effect; inactive = no such curve, though single readings can be large or run the other way;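 note: % is set by controls: 0 for no effect and ±100 for the full control effect; nearly all actives have a fitted effect of over 50% in size; the assay follows cell death caused by Vpr and the record does not say whether a fall means rescue or toxicity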
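Fission yeast RE007 carrying one integrated HIV-1 vpr copy, seeded at OD 0.01 in PMG+AL medium with 23 nL pinned compound. Grown 24 h at 30 degrees; viability read by BacTiter-Glo luminescence after 5 min.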
NS1 function inh: blocks influenza NS1 protein function | S. cerevisiae slowed by influenza A NS1, growth recovery by OD600 | Potency, µM (top dose mostly 46.1 µM), inactives show at the highest dose activity, positive = more growth | 270,000 compounds, 0.4% hits; note: actives are rising curves; nearly all actives have a fitted effect of over 50% in size
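In this qHTS, NS1 from influenza A is expressed in budding yeast, where it slows growth. Cells are switched from glucose to 2% galactose medium (pH 6.0, -URA), treated with compound, and growth recovery is read at OD600.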
LASV entry inh: blocks Lassa virus binding to or entry into cells; Lassa virus pseudotype entry inhibition, cell reporter; control for the full effect not named in the record; Potency, µM (series often up to 37.9 µM), for the others: at the top dose activity change, negative = inhibition, usual class: inhibitors; 300,000 compounds, 1.2% hits; active means well fitted inhibition curve with a large enough effect; inconclusive means small, poorly fitted or top-dose-only effect, or effect the other way; inactive means flat fitted curve, though single readings scatter; tested in HEK293 cells; note: % is set by controls: 0 for no effect and ±100 for the full control effect; nearly all actives have a fitted effect of over 50% in size; luciferase read-out
Cruzain inh Det: cruzain (T. cruzi) inhibition with detergent. P25779. purified cruzain, Z-FR-AMC fluorescence, 0.01% Triton. Potency, µM, for inactives: max response, negative = inhibition, hits mostly inhibitors. 200,000 compounds, 0.43% hits; active = well fitted curve in the direction sought with a large enough effect; inconclusive = small, poorly fitted or top-dose-only effect, or another doubt; inactive = no such curve, though single readings can be large; an effect the other way counts as inactive or inconclusive;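 note: plate controls were neutral wells for no effect and buffer without enzyme for full effect; nearly all actives have a fitted effect of over 40% in size; top concentration of the series not given in the record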
Target sequence (P25779 123-467 limits assumed): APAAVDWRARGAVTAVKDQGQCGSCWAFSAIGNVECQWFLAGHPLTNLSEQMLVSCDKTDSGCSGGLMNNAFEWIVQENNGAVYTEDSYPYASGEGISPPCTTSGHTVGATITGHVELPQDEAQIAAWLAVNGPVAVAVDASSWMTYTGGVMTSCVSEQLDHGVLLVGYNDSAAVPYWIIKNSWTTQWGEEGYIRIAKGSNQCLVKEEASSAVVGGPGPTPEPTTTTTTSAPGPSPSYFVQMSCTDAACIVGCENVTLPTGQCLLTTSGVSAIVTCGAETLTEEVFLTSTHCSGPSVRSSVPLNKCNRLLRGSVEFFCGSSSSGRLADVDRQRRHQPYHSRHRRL
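Steps: dispense cruzain (1.5 nM final) in acetate buffer pH 5.5 with DTT and 0.01% Triton X-100; pin-transfer compounds; incubate 15 min RT; add Z-FR-AMC (2 uM final); read fluorescence every 30 s, using the 60 s intensity change.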
Cruzain noTriton: inhibitors of Trypanosoma cruzi cruzain without detergent | Potency, µM, without a hit: max response, negative = inhibition, usual class: inhibitors | purified cruzain, Z-FR-AMC fluorescence, no detergent | 200,000 compounds, 2.3% hits; active = well fitted curve in the direction sought with a large enough effect; inconclusive = small, poorly fitted or top-dose-only effect, or another doubt; inactive = no such curve, though single readings can be large; an effect the other way counts as inactive or inconclusive;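 note: plate controls were enzyme without inhibitor for no effect and buffer without enzyme for full effect; nearly all actives have a fitted effect of over 40% in size; top concentration of the series not given in the record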
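Purified cruzain at 1.5 nM, pre-incubated 15 min with compound at room temperature in 100 mM sodium acetate pH 5.5, 5 mM DTT, 0.00005% Triton X-100. Reaction started with 2 uM Z-FR-AMC; AMC fluorescence increase over 60 s gives rate.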
SARS PLpro yeast: SARS-CoV PLP inhibition in yeast | S. cerevisiae expressing SARS-CoV PLpro, growth rescue; control for the full effect not named in the record | Potency, µM (series often up to 32.9 µM), inactives show at the top dose activity, positive = growth rescue | 330,000 compounds, 0.19% hits | AID 485353; note: 0% is about no effect; nearly all actives have a fitted effect of over 55% in size; growth read by luminescence after 48 h
* = called active by the depositor; [ ] = remark or other dose. Unless noted, calls come from the whole dose curve; as a rule, active means well fitted rising curve with a large enough effect; inconclusive means small, poorly fitted or top-dose-only effect; inactive means no such curve, though single readings can be large or run the other way. Potency is the fitted concentration of half-maximal effect.

`CC1CCN(CC(O)COc2ccc(OCC(O)CN3CCC(C)CC3)cc2)CC1` (stereo not drawn) gave StopGo reporter 7%, RE007 growth inh 3%, NS1 function inh -2% and SARS PLpro yeast 1%.
Cc1nn(CC(=O)O)c(C)c1NC(=O)c1cccs1 was read as StopGo reporter -2%, RE007 growth inh -8%, NS1 function inh 3% and SARS PLpro yeast 1%.
For Cc1ccc(C)c(N2CCN(S(=O)(=O)c3ccc(-c4coc(C)n4)cc3)CC2)c1 the results were StopGo reporter -14%, LASV entry inh 3%[46.1 µM], Cruzain inh Det -5.2% and Cruzain noTriton -12%.
CC(=NCCN1CCOCC1)c1c(O)n(C2CCCCC2)c(=O)[nH]c1=O was read as StopGo reporter -14%, Marburg entry inh 20%, RE007 growth inh -5%, NS1 function inh -51%, LASV entry inh inconclusive, Cruzain inh Det -1.4%, Cruzain noTriton 0% and SARS PLpro yeast 1%.
Screening CCCCN(C)C(=O)Cn1c(C2CC(=O)N(c3ccc(C)cc3)C2)nc2ccccc21 (stereo not drawn) returned StopGo reporter -3%, Marburg entry inh 29%[46.1 µM], LASV entry inh 24%[46.1 µM], Cruzain inh Det -1.3% and Cruzain noTriton -8%.
CCOP(=O)(OCC)C(Nc1ccccc1)c1cccnc1 (stereo not drawn) was read as StopGo reporter -3%, RE007 growth inh -1%, NS1 function inh 1% and SARS PLpro yeast 0%.
COc1ccc(C2c3c(ccc4ccccc34)Oc3ncn4nc(-c5ccco5)nc4c32)cc1 (stereo not drawn) was read as StopGo reporter -13%, Marburg entry inh inconclusive, RE007 growth inh -8%, NS1 function inh 12%, LASV entry inh 0%, Cruzain inh Det 1.8%, Cruzain noTriton inconclusive and SARS PLpro yeast 10%.
Screening c1cc2c3c(cccc3c1)NN=N2 returned StopGo reporter -13%, Marburg entry inh -16%, RE007 growth inh 3% and LASV entry inh inconclusive.
For O=C(NCCc1ccccc1C(F)(F)F)C1CCC(=O)N(C2CC2)C1 (stereo not drawn) the results were StopGo reporter -1%, Marburg entry inh 29%, RE007 growth inh 7%, NS1 function inh 2%, LASV entry inh 12% and SARS PLpro yeast 3%.
Screening O=C(CSc1nnnn1-c1ccc(F)cc1)Nc1nc2ccccc2s1 returned StopGo reporter -28%, Marburg entry inh 11%, RE007 growth inh -3%, NS1 function inh -1%, LASV entry inh 2%, Cruzain inh Det -1.6%, Cruzain noTriton inconclusive and SARS PLpro yeast inconclusive.
For CCn1c(C)nnc1SCC(=O)Nc1ccc(N2CCOCC2)cc1 the results were StopGo reporter 18%, Marburg entry inh 19%, RE007 growth inh 8%, NS1 function inh 15%, LASV entry inh inconclusive and SARS PLpro yeast 0%.
For CCOC(=O)c1c(CC(C)C)csc1NC(=O)c1ccccc1C(=O)O the results were StopGo reporter -7%, RE007 growth inh -1%, NS1 function inh 18% and SARS PLpro yeast 0%.
Screening CCc1ccc(C(=O)CN2C(=O)C(C)N(c3ccc(C)cc3)C2=O)cc1 (stereo not drawn) returned StopGo reporter 9%, Marburg entry inh -4%[46.1 µM], RE007 growth inh -6%, NS1 function inh 5%, LASV entry inh -1%, Cruzain inh Det -1.4%, Cruzain noTriton 1% and SARS PLpro yeast 4%.
Screening CCC(OC(=O)CN1C(=O)C(=O)c2ccccc21)C(=O)Nc1ccccc1OC (stereo not drawn) returned StopGo reporter -15%, Marburg entry inh -11%[46.1 µM], RE007 growth inh -11%, NS1 function inh 16%, LASV entry inh 19% and SARS PLpro yeast 9%.
Cc1onc(-c2ccccc2)c1C(=O)Oc1cccnc1 was read as StopGo reporter -1%, Marburg entry inh -13%, RE007 growth inh -11%[3.69 µM], NS1 function inh -4%, LASV entry inh 2%, Cruzain inh Det -4.0%, Cruzain noTriton -1% and SARS PLpro yeast 2%.
For CC(=O)c1ccc(Cc2ccc(C(C)=O)cc2)cc1 the results were StopGo reporter -9%, Marburg entry inh 30%[46.1 µM], RE007 growth inh 5%, LASV entry inh -17% and SARS PLpro yeast -2%.
Screening O=C(COc1ccccc1O)NC1CCCC1 returned StopGo reporter 0%, Marburg entry inh 2%[46.1 µM], RE007 growth inh -15%, LASV entry inh 10% and SARS PLpro yeast 3%.
`CCCCOC(=O)C(C)Nc1n[nH]c(=S)[nH]c1=O` (stereo not drawn) gave StopGo reporter -9%, Marburg entry inh -5%, RE007 growth inh 11%, NS1 function inh 6%, LASV entry inh -5%, Cruzain inh Det -0.1%, Cruzain noTriton -2% and SARS PLpro yeast -1%.
Cc1ccc(SCC(=O)NC2CC3CCC(C2)N3C)cc1 (stereo not drawn) was read as StopGo reporter 14%, Marburg entry inh 25%[46.1 µM], RE007 growth inh 4%, NS1 function inh 8%, LASV entry inh 13%[46.1 µM] and SARS PLpro yeast 0%.
Screening Cc1ccc(C)c(N=C2NC(=O)CS2)c1 returned StopGo reporter -6%, Marburg entry inh 9%, RE007 growth inh 6%, NS1 function inh -2%, LASV entry inh -3%, Cruzain inh Det 1.9%, Cruzain noTriton 6% and SARS PLpro yeast 0%.
Screening CC1(C)Cc2nc3nc(SCC(=O)NCc4ccccc4)n(-c4ccccc4)c(=O)c3cc2CO1 returned NS1 function inh -11%, Cruzain inh Det 1.5%, Cruzain noTriton -5% and SARS PLpro yeast 1%.
COc1ccc(C(=O)C2CCCN(S(=O)(=O)c3cccnc3)C2)c(C)c1 (stereo not drawn) was read as StopGo reporter -16%, Marburg entry inh inconclusive, RE007 growth inh 8%, NS1 function inh -6%, LASV entry inh -13% and SARS PLpro yeast -1%.
`CN1CCN(c2ccccc2NC(=O)c2ccc([N+](=O)[O-])o2)CC1` gave StopGo reporter -3%, Marburg entry inh inconclusive, RE007 growth inh -12%, NS1 function inh 4%, LASV entry inh -20% and SARS PLpro yeast -10%.
`Cc1ccc(S(=O)(=O)NCC(=O)N(CC(=O)NCC2CCCO2)c2cccc(F)c2)cc1` (stereo not drawn) gave StopGo reporter -7%, Marburg entry inh -3%[46.1 µM], RE007 growth inh 1%, NS1 function inh 3%, LASV entry inh -1% and SARS PLpro yeast -1%.
Cc1ccc(NC(=O)COC(=O)Cc2ccsc2)cc1S(=O)(=O)N(C)C was read as StopGo reporter 31%[activator], RE007 growth inh -14%, NS1 function inh -4% and SARS PLpro yeast -1%.
Screening CCc1nc2sccc2c(=O)[nH]1 returned StopGo reporter -16%, Marburg entry inh 6%[46.1 µM], RE007 growth inh 1%, NS1 function inh 2%, LASV entry inh 2%[46.1 µM] and SARS PLpro yeast 0%.
CCOC(=O)N1CCN(S(=O)(=O)c2ccc(C(=O)Nc3nnc(C)o3)cc2)CC1 was read as StopGo reporter 10%, Marburg entry inh 3%, RE007 growth inh 3%, NS1 function inh -6%, LASV entry inh 10%, Cruzain inh Det 0.2%, Cruzain noTriton 14% and SARS PLpro yeast 5%.
`CS(=O)(=O)N1CCSC1c1ccc(Br)cc1` (stereo not drawn) gave StopGo reporter -2%, RE007 growth inh -8%, NS1 function inh 4% and SARS PLpro yeast 0%.
`COc1ccc(-c2nc(S(=O)(=O)c3ccc(C)cc3)c(NCc3ccccc3)o2)cc1` gave StopGo reporter 24%, Marburg entry inh -19%[46.1 µM], LASV entry inh inconclusive, Cruzain inh Det inconclusive and Cruzain noTriton inconclusive.
CC1=C(C(=O)Nc2ccccc2)C(c2ccccc2C)n2nc(SCC(=O)c3ccc(C)cc3)nc2N1 (stereo not drawn) was read as StopGo reporter 14%, LASV entry inh 4%[46.1 µM], Cruzain inh Det 0.7% and Cruzain noTriton 3%.
`O=C(NCc1ccco1)c1cc2ccccc2o1` gave StopGo reporter 33%[activator], Marburg entry inh 7%, RE007 growth inh -14%, NS1 function inh -56%, LASV entry inh 14%, Cruzain inh Det -0.3%, Cruzain noTriton -7% and SARS PLpro yeast -6%.
Screening CCOc1ccc(NC(=S)NCc2ccco2)cc1 returned StopGo reporter 35%[activator], Marburg entry inh inconclusive, RE007 growth inh -13%, LASV entry inh -1%[46.1 µM] and SARS PLpro yeast 6%.
Screening COc1ccc(NCc2cccn2-c2nnc(N3CCCCCC3)s2)cc1 returned StopGo reporter -20%, LASV entry inh 24%[46.1 µM], Cruzain inh Det -6.4% and Cruzain noTriton 5%.
For CC(C)Oc1ccc(C(=O)O)cc1 the results were StopGo reporter -10%, Marburg entry inh 9%[46.1 µM], RE007 growth inh 2%, NS1 function inh 0%, LASV entry inh 11%[46.1 µM] and SARS PLpro yeast 1%.
For CC(C)(C)c1nc(NCc2ccc3c(c2)OCO3)c2nnn(Cc3ccccc3Cl)c2n1 the results were StopGo reporter -19%, Marburg entry inh 10%, RE007 growth inh 25%, NS1 function inh 11%, LASV entry inh -16%, Cruzain inh Det 1.3%, Cruzain noTriton -27% and SARS PLpro yeast -13%.
`O=C(CCCCCNC(=O)c1ccccc1Br)N=Nc1c(O)[nH]c2ccccc12` gave StopGo reporter -16%, RE007 growth inh 1%, NS1 function inh 8% and SARS PLpro yeast 1%.
Screening CN1CCN(c2ccc(NC(=S)NC(=O)c3cccc4c(Cl)cccc34)cc2)CC1 returned StopGo reporter -24%, RE007 growth inh 4%, NS1 function inh 3% and SARS PLpro yeast 10%.
`COc1ccc(OCC(=O)N2CCN(C3CCC(c4ccccc4)CC3)CC2)cc1` (stereo not drawn) gave StopGo reporter -19%, Marburg entry inh inconclusive, RE007 growth inh 3%, NS1 function inh -13%, LASV entry inh -15%[46.1 µM], Cruzain inh Det -1.9%, Cruzain noTriton 7% and SARS PLpro yeast 5%.

Compounds listed so far that contain a Cl atom (2):
For CC(C)(C)c1nc(NCc2ccc3c(c2)OCO3)c2nnn(Cc3ccccc3Cl)c2n1 the results were StopGo reporter -19%, Marburg entry inh 10%, RE007 growth inh 25%, NS1 function inh 11%, LASV entry inh -16%, Cruzain inh Det 1.3%, Cruzain noTriton -27% and SARS PLpro yeast -13%.
Screening CN1CCN(c2ccc(NC(=S)NC(=O)c3cccc4c(Cl)cccc34)cc2)CC1 returned StopGo reporter -24%, RE007 growth inh 4%, NS1 function inh 3% and SARS PLpro yeast 10%.

High-throughput results as filed in PubChem.
